nsP2pro inh = Primary qHTS for inhibitors of NSP2Pro chikungunya virus (CHIKV) | Polyprotein P1234 (Chikungunya virus (strain S27-African prototype)), Q8JUX6 | FRET peptide cleavage, nsP2pro, fluorescence 1 h | Potency, µM (doses to about 24.9 µM), inactives show at the highest dose activity change, negative = inhibition, usual class: inhibitors | hit rate 1.1% among 31,000; active means well fitted inhibition curve with a large enough effect; inconclusive means small, poorly fitted or top-dose-only effect; inactive means no such curve, though single readings can be large or run the other way; also: nearly all actives have a fitted effect of over 60% in size; a reference inhibitor and vehicle were the controls
Target sequence (Q8JUX6 whole entry, looked up): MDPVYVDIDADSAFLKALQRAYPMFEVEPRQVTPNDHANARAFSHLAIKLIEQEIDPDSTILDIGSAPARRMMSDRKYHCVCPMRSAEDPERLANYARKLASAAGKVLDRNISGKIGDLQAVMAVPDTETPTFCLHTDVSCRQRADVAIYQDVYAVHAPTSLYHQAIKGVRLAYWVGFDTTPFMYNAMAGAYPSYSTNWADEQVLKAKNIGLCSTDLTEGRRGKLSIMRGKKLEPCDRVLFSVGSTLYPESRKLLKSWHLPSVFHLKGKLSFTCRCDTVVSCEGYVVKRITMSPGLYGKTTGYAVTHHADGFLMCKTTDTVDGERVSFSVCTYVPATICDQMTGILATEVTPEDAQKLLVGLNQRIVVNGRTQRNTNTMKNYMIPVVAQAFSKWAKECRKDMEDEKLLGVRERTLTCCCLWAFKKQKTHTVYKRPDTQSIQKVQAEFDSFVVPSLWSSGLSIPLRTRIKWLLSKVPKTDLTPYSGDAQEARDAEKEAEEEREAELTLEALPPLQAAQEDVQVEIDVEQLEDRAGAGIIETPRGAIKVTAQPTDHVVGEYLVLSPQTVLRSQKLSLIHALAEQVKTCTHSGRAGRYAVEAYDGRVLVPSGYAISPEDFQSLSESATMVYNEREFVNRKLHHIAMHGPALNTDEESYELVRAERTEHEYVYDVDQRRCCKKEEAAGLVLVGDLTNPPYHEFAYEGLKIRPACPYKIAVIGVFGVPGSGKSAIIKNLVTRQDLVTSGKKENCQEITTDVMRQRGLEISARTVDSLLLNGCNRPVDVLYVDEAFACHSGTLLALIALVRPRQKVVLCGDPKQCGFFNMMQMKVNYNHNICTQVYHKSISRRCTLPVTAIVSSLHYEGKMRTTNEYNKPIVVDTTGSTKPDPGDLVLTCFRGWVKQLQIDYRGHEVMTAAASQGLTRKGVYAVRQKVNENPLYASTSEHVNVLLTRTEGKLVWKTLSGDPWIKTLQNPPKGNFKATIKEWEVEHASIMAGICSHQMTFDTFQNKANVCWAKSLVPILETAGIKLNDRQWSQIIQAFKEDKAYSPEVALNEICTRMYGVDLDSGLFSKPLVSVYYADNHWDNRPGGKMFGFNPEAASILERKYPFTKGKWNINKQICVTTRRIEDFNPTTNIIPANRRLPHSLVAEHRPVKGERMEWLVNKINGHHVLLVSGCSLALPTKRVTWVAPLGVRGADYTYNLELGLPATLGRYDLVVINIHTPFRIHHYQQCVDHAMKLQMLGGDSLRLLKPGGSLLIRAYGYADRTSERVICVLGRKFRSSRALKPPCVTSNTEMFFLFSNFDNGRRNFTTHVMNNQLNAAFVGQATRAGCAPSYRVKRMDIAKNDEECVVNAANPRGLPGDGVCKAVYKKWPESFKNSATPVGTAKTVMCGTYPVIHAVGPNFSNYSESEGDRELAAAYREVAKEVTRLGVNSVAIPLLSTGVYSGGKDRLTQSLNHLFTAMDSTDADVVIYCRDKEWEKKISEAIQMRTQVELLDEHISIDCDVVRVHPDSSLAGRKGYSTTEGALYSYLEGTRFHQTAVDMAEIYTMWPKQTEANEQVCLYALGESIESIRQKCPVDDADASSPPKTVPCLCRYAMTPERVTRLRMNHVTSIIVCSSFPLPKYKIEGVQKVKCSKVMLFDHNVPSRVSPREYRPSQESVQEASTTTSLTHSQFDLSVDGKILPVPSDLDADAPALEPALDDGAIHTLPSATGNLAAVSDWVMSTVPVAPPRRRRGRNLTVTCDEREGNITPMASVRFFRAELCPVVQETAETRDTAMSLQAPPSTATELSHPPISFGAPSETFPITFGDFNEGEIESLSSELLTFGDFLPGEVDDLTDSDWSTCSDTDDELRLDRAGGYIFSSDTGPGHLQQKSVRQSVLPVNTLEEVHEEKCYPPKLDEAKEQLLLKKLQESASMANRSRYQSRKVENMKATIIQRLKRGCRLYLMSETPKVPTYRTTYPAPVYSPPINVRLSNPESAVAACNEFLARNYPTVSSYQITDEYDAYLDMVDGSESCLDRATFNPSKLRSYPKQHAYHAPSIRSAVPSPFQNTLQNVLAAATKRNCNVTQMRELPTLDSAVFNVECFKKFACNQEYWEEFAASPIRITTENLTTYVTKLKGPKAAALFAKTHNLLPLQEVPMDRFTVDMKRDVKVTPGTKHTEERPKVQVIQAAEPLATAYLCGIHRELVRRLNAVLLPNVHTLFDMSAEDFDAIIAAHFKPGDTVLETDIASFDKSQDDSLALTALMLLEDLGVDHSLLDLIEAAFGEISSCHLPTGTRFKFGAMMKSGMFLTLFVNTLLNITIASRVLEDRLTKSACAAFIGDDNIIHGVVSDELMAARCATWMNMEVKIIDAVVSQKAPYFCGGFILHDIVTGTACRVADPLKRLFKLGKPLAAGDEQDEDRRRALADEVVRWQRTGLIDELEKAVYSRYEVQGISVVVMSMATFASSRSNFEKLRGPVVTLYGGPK
The depositor's hits bear a star; i = inactive; ? = inconclusive; & = joins results of further samples; [ ] = dose if it differs, or a comment. % is scaled to controls: 0 for no effect and ±100 for the full control effect; potency is read from the fitted curve at half-maximal effect. The list is partial; the hit share may differ from the screen's.

SMILES	nsP2pro inh
CS(=O)(=O)N1CC2(CCN(C3COC3)C2)Cc2ccccc21 (configuration not stated)	-9%
CC(=O)Nc1cccc(S(=O)(=O)N2CCN(S(=O)(=O)c3ccc4c(c3)OCCO4)CC2)c1	i
Cc1noc(-c2sc3c(c2-c2nc4ccccc4s2)CCNC3)n1	-4%
CC(C)(Oc1ccc(CCNC(=O)c2ccc(Cl)cc2)cc1)C(=O)O	0%
O=C1NC2(CN([S+](=O)([O-])c3ccccc3)C2)Oc2ccccc21	-20%[39.2 µM]
CC1=C(c2ccc(C)cc2)S(=O)(=O)NC1=NCc1cccc(F)c1	-15%
CCC1CCCCN1S(=O)(=O)c1ccc(NC(=O)c2cc(=O)c3c(C)cc(C)cc3o2)cc1 (configuration not stated)	-9%
CC(=O)O[C@H]1[C@H](Oc2ccccc2COC(=O)C2(O)C=CCCC2=O)O[C@H](CO)[C@@H](O)[C@@H]1O (some centres not stated)	17%[10 µM]
Cc1ccc(CN2CCCn3nc(C(=O)NCCc4ccccc4Cl)cc3C2=O)cc1	-9%
COc1cc2c(N3CCN(C(=O)Nc4ccc(OC(C)C)cc4)CC3)ncnc2cc1OCCCN1CCCCC1	86%[activator]
CCCCCCCC/C=C/C(=O)O	-22%
CC(=O)O/N=C1\C(=O)N(Cc2cc(Cl)ccc2Cl)c2ccc(Cl)cc21	?
COc1ccc(/C=C/c2nc(C#N)c(N3CCC(C(N)=O)CC3)o2)cc1OC	-26%
CC(C)n1nc(OC(C)(C)C(=O)Nc2ccccn2)c2cc(CN3CCOCC3)ccc21	-7%[39.2 µM]
N#C/C(=C\c1ccc(F)cc1)c1nc(-c2ccc(-c3ccccc3)cc2)cs1	-17%
COc1cc(/C=C/C(=O)N2CCC=CC2=O)cc(OC)c1OC	-9%&9%
CN(CCc1ccccn1)[C@H]1[C@@H]2OC[C@@H](O2)[C@@H](NCc2ccc(-c3ccccc3)cc2)[C@@H]1O	i
CC(=O)Nc1cccc(-c2nnc(SCC(=O)c3cc([N+](=O)[O-])ccc3Cl)o2)c1	-2%
Cc1ccc(C)c(Nc2nn3c(=O)c4ccc(C(=O)NCc5cccs5)cc4nc3s2)c1	4%
Cn1nnnc1SCC1=C(C(=O)O)N2C(=O)[C@H](NC(=O)C(O)c3ccccc3)C2SC1 (some centres not stated)	-19%

Among those listed so far, 6 contain a halogen.
SMILES	nsP2pro inh
CC(C)(Oc1ccc(CCNC(=O)c2ccc(Cl)cc2)cc1)C(=O)O	0%
CC1=C(c2ccc(C)cc2)S(=O)(=O)NC1=NCc1cccc(F)c1	-15%
Cc1ccc(CN2CCCn3nc(C(=O)NCCc4ccccc4Cl)cc3C2=O)cc1	-9%
CC(=O)O/N=C1\C(=O)N(Cc2cc(Cl)ccc2Cl)c2ccc(Cl)cc21	?
N#C/C(=C\c1ccc(F)cc1)c1nc(-c2ccc(-c3ccccc3)cc2)cs1	-17%
CC(=O)Nc1cccc(-c2nnc(SCC(=O)c3cc([N+](=O)[O-])ccc3Cl)o2)c1	-2%

New compounds follow:
SMILES	nsP2pro inh
N#Cc1cc(-c2ccnc(Nc3ccc(N4CCOCC4)cc3)n2)ccc1OC1CCOCC1	4%
CC(C)(Oc1ccc(-c2nc3cc(Cl)ccc3s2)cc1)C(=O)O	-1%
COc1ccc(-c2cc(C[C@@H]3CC[C@H](O)[C@@H](CNC4CCN(C(C)=O)CC4)O3)no2)cc1	-3%
O=C(NCC1CCCCCC1)C1CCN(Cc2ccccc2-c2cccnc2)CC1	i
CC1CCCCN1C(=O)Cn1c(SCC(=O)N(C)c2ccccc2)nc2ccccc21 (configuration not stated)	0%
Clc1ccc(CN2CCN(c3ncnc4sc5c(c34)CCCC5)CC2)cc1Cl	-21%
CC(=O)Nc1ccc2c(c1)S(=O)(=O)N=C(CC(C)C)N2CC(C)C	2%
CCCCCOc1ccc(C(=O)N(Cc2ccccc2)C2CCS(=O)(=O)C2)cc1 (configuration not stated)	-23%
Cc1cc(N2CCC(C)CC2)nc2ccc(NC(=O)/C=C/c3cccc(Cl)c3)cc12	?
CC1OC(OC2C(CO)OC(OCC3OC(OC(=O)C45CCC(C)(C)CC4C4=CCC6C7(C)CCC(OC8OC(C(=O)O)C(O)C(OC9OC(CO)C(O)C(O)C9O)C8O)C(C)(C)C7CCC6(C)C4(C)CC5)C(O)C(O)C3O)C(O)C2O)C(O)C(O)C1O (configuration not stated)	-11%[5.1 µM]
S=C(NCc1ccc2c(c1)OCO2)N1CCN(c2ncnc3c2oc2ccccc23)CC1	-7%
COc1ccccc1OC1(C(=O)O)CCN(Cc2cccnc2)CC1	1%
COC(=O)C1=C(C)NC(=O)NC1c1ccc(Cl)cc1 (configuration not stated)	i
C=C1CC[C@H]2[C@@](C)(CCC(O)[C@@]2(C)CO)[C@@H]1C/C=C(/C(=O)O)C(O)CO (some centres not stated)	15%
Cc1ccc2c(c1)[C@H]1CN(C)CC[C@H]1N2C(=O)CSc1nnnn1-c1ccc(Cl)cc1	26%
Cc1ccc(-c2nc(CNC(=O)NC3CCCCC3)c(C)o2)cc1	-25%
CCN(Cc1ccccc1)C(=O)c1cc(-c2ccccc2)n[nH]1	-5%
C/C=C(\C)C(=O)OC1C(C)C2(O)C(C=C(CO)CC3(O)C(=O)C(C)=CC32)C2C(C)(C)C12OC(C)=O (configuration not stated)	8%[10 µM]
CCc1cccc(-n2c(=O)c3cccnc3n2CC(=O)NCc2ccc(C)cc2)c1	-13%
Cc1cccc(-n2cnc3cc(C(=O)N4CCCCC4)ccc32)c1	-5%
Cc1ccc(CNC(=O)c2ccc3nc(SCc4ccc(F)cc4)[nH]c3c2)cc1	-7%
COc1cccc2c1C(=O)c1c(O)c3c(c(O)c1C2=O)C[C@@](O)(C(=O)CO)CC3OC1CC(N2CCOC(OC)C2)C(O)C(C)O1 (some centres not stated)	210%[activator]
Cc1cnc(C(=O)N[C@@H]2CN(C3CCOCC3)C[C@H]2CN(C)C)cn1	0%
CC(C)NC(=O)CN1C(=O)COc2ccc(S(=O)(=O)N3CCCCCC3)cc21	-10%
CCc1ccccc1NC(=O)CC(C)S(=O)(=O)c1ccc2c(c1)NC(=O)CO2 (configuration not stated)	-18%
Cc1nnc([C@H]2CCN(Cc3ncc[nH]3)C2)o1	i
NC(=O)OCCCc1ccccc1	-8%
CN(C)CCN(C)[C@@H]1[C@H](O)[C@H](CO)O[C@@H]1CNCc1cccc(Cl)c1	-6%
CCCCOc1ccccc1C(=O)N(Cc1sccc1C)C1CCS(=O)(=O)C1 (configuration not stated)	-22%
CCOC(=O)N1CCN(S(=O)(=O)N2CCCC(C(=O)NCc3ccc(OC)cc3OC)C2)CC1 (configuration not stated)	-18%
COc1ccc(-c2cn3c(n2)CO[C@@H](CNC(=O)CCC(=O)O)C3)cc1	-11%[39.2 µM]
O=C(N[C@@H]1CCN(C(=O)CCCn2cccn2)C[C@H]1O)c1ccccn1	i
COc1ccc(CNC(=O)c2cccn2-c2nnc(N3CCCC3)s2)c(OC)c1	-21%
COc1ccc2[nH]c3c(-c4cccc5ccccc45)nccc3c2c1	7%
FC(F)(F)c1ccccc1-c1nc(NCc2cccc(Cl)c2)c2ccccc2n1	-1%
CCN1Cc2ccccc2NC(=O)C12CCNC2 (configuration not stated)	8.9µM*
CCCCC(=O)OCC(=O)[C@H]1[C@H](C)C[C@H]2[C@@H]3C[C@H](F)C4=CC(=O)C=C[C@]4(C)[C@@]3(F)[C@@H](O)C[C@@]21C	-4%
CC/C=C\C(O)C(O)C1=C(C)C(=O)C2(O1)C(=O)NC(OC)(C(=O)c1ccccc1)C2O (configuration not stated)	47%[activator][10 µM]
CN1CCC(N2CCC[C@H]2c2nc(-c3ccc(OC4CCCCC4)nc3)no2)CC1	i
CCc1nc(NCc2cn[nH]c2-c2ccc(Cl)cc2)c2cnn(C)c2n1	i
COc1ccc(-c2nc(SCC(=O)Nc3ccc4c(c3)OCO4)c(-c3ccccc3)[nH]2)cc1	-27%
CCN1CCN(C(=O)c2ccc3nc(-c4cccnc4)oc3c2)CC1	2%
CC[C@@]1(O)CCN(C(=O)c2ccccc2OCc2ccccc2)C[C@H]1O	i
Cc1ccc(-n2ncc(C(=O)N3CCN(c4ccccn4)CC3)c2C2CCN(C(=O)OC(C)(C)C)CC2)cc1C	-22%
C/C=C(\C)C(O)C(C)/C=C(C)/C=C/C/C(C)=C/Cc1nc(OC)c(OC)c(O[C@@H]2O[C@@H](C)[C@H](O)[C@@H](O)[C@H]2O)c1C (some centres not stated)	-8%[10 µM]
N#CC(C#N)=NNc1ccc(OC(F)(F)F)cc1	16%
CCOC(=O)C1CCCN(c2nc3c(S(=O)(=O)c4ccc(CC)cc4)nnn3c3ccsc23)C1 (configuration not stated)	-7%
Cc1ccc2sc(N3CCN(C(=O)CCS(=O)(=O)c4ccc(F)cc4)CC3)nc2c1C	-18%
Cc1ccc(-c2cc(C(=O)Nc3cccc4ccccc34)c3ccccc3n2)cc1C	4%
NCC(=O)N1CCC2(CC1)CN(C(=O)Cc1ccc(Cl)cc1)CCO2	?

Other entries follow:
SMILES	nsP2pro inh
Cn1nc(-c2ccc(C(F)(F)F)cc2)nc2c(=O)n(C)c(=O)nc1-2	-19%
C=C1C(=O)O[C@@H]2/C=C(\CO)CC/C=C(/C=O)C[C@@H](O)[C@@H]12	?
O=C1Cc2cc(S(=O)(=O)N3CCN(c4cccc(C(F)(F)F)c4)CC3)ccc2N1	-1%[39.2 µM]
CC(=O)N1CCN(C(=O)c2ccc3oc(-c4cccnc4C)nc3c2)CC1	-3%[39.2 µM]
COc1ccc(NC(=O)c2sc3nc4c(c(-c5ccc(OC)cc5)c3c2N)C(=O)CC(C)(C)C4)cc1	-25%
COc1ccc2oc(-c3ccc(C)c(NC(=O)c4sc5ccccc5c4Cl)c3)nc2c1	-16%
CCc1nncn1C1CCN(C(=O)c2cc(-c3cccs3)[nH]n2)C1 (configuration not stated)	1%
Cc1cc(C)nc(NC(=S)N2CCN(c3ccc(Cl)cc3F)CC2)c1	0%
COc1ccc(-n2c(-c3ccccc3F)nc3c(cnn3-c3ccc(C)cc3)c2=O)cc1	11µM*
CCOC(=O)N[C@@H]1CC[C@@H]2[C@@H](C1)C[C@H]1C(=O)O[C@H](C)C1[C@H]2/C=C/c1ccc(-c2cccc(F)c2)cn1 (some centres not stated)	1%
C[C@]12C[C@@H](O)[C@@H]3C[C@@]1(O[C@@H]1O[C@H](CO)[C@@H](O)[C@H](O)[C@H]1O)[C@]3(COC(=O)c1ccccc1)C(=O)O2	20%[10 µM]
Cc1ccc(Cn2c(=O)n(-c3ccccc3)c(=O)c3ccc(C(=O)NCc4ccco4)cc32)cc1	-22%
COc1ccc(CCNC(=O)C2CCN(c3nc4ccccc4nc3C(F)(F)F)CC2)cc1OC	-21%
CCCCCC(=O)N(c1ccc(OCC)cc1)S(=O)(=O)c1ccc2c(c1)n(C)c(=O)n2C	-16%
O=C(O)C1CCc2nnc(C3CCN(C(=O)c4ccccc4)C3)n21 (configuration not stated)	?
COc1cc(Cl)c(C)cc1NC(c1ccccc1)c1nnc(-c2ccccc2Cl)o1 (configuration not stated)	-14%
CC(=O)NCCNC(=O)C1CCCN(S(=O)(=O)c2ccccc2)CCC(=O)NCC1 (configuration not stated)	-16%
CCOC(=O)c1cc(-c2ccc(F)cc2)n(CC(=O)NC2CCCCC2)c1C	-32%
CCc1cccc(C)c1NC(=O)Cn1c(=O)n(-c2cccc(C)c2)c(=O)c2c1c1cc(C)ccc1n2C	-18%
Cc1ccc(NS(=O)(=O)c2cc3c(cc2N[C@H](C)CO)NC(=O)CC3)cc1C	?
Cc1ccc2c(c1)N(C(=O)CCC(=O)NCc1ccccc1F)CC(C)O2 (configuration not stated)	-13%
CNC(=O)c1cc(C2CC2)nc2onc(C3CCCN3C(C)=O)c12 (configuration not stated)	i
Cc1cc(NC(=S)N2CCN(c3cccc(C(F)(F)F)c3)CC2)nc2ccccc12	-5%
CNc1nc(Oc2ccc(=O)[nH]n2)nc(N2CCOCC2)n1	-7%
O=C(NCCCc1ccccc1)c1nn(-c2ccccc2F)nc1CO	-7%
Cc1c(C(=O)OCc2ccco2)[nH]c2c1C(=O)CC(c1ccco1)C2 (configuration not stated)	?
COc1ccc2cc(C3CN(CCC(=O)NC(C)(C)C)CCO3)ccc2c1 (configuration not stated)	-7%
O=C(CSc1nnc(-c2cccc(S(=O)(=O)N3CCCC3)c2)n1-c1ccccc1)Nc1ccc(F)cc1	3%
COc1ccc(C(=O)Oc2ccc(-c3nc4ccccc4[nH]3)cc2)cc1OC	0%
CCn1nccc1C(=O)N1CC[C@H](n2c(=O)n(C)c3cccnc32)C1	i

A few values from above.
For nsP2pro inh, `O=C(CSc1nnc(-c2cccc(S(=O)(=O)N3CCCC3)c2)n1-c1ccccc1)Nc1ccc(F)cc1` has the entry 3%
For nsP2pro inh, `O=C(NCCCc1ccccc1)c1nn(-c2ccccc2F)nc1CO` has the entry -7%
For nsP2pro inh, `Cc1cc(NC(=S)N2CCN(c3cccc(C(F)(F)F)c3)CC2)nc2ccccc12` has the entry -5%

Carrying on:
SMILES	nsP2pro inh
CCOC(=O)N1CCC(CN(Cc2ccc(Cl)cc2)Cc2ccc([N+](=O)[O-])s2)C1 (configuration not stated)	-7%
COc1ccc(CNC(=O)C(=O)NCC(c2cccs2)S(=O)(=O)c2ccc(C)cc2)cc1 (configuration not stated)	-22%
O=C(NCc1ccccc1)C1CCC(CNS(=O)(=O)c2ccc(Br)s2)CC1 (configuration not stated)	-7%
C/C=C/C1=CC2=C(CO1)C(=O)[C@](C)(O)[C@H](OC(=O)c1c(O)cc(OC)c(O)c1C)C2	?
COC(=O)Cc1c(C)c2ccc3c(c2oc1=O)CN(Cc1ccc(Cl)cc1)CO3	-1%
Cc1ccc(-n2c(=O)ccc(=O)n2CC(=O)N(C)C(C)c2ccco2)cc1 (configuration not stated)	-6%

Source: PubChem BioAssay (National Center for Advancing Translational Sciences (NCATS))
